RN4220 kill – kills Staphylococcus aureus RN4220; S. aureus RN4220 growth, OD600, 16 h; inhibition, % (no concentration beside the values); hit rate 0.33% among 330,000;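 active means z-score of -3 or lower and OD600 up to 0.18 on both plates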;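 further: plate controls were untreated cells for no effect and reference antibiotic for full effect; stock transfer was 100 nL into about 80 µL; one replicate is shown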
Mtb hypoxia inh – reduces hypoxia-regulated biosensor signal in M. tuberculosis | M. tuberculosis hypoxia-regulated fluorescent reporter, fluorescence | fluorescence inhibition, % (concentration not given with the values) | hit rate 0.1% among 300,000 | AID 1159583;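 active means 35 to 45% if threefold the growth effect, above 45% if 1.5-fold the growth effect; inactive means the rest, general growth blockers included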;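 further: wells of about 50 µL received 100 nL stock; 0% = vehicle wells and 100% = reference inhibitor wells; whole bacteria with a GFP reporter of the hypoxia response; strong numbers were not always called active; many hits fall short of the cut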
BJeLR lethal – BJeLR cell viability loss; BJeLR (HRASV12) viability, CellTiter-Glo ATP luminescence, 48 h; reference of the scale not given here; inhibition, % (test concentration not listed); hit rate 0.17% among 300,000; AID 1554;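 active means replicate mean above 50%; inconclusive means above 50% but judged a plate artefact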;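 further: 50 nL library stock added to about 25 µL; numbers are from one replicate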
Bead autofluor – flagged as autofluorescent in microsphere protease counterscreen; compound autofluorescence counterscreen, microsphere flow cytometry; active compounds read high; AID 624483; hit rate 3.1% among 360,000; fluorescence intensity (test concentration not listed);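 active means at least 3 SD above the mean of all compounds, about 16000 in these data; inconclusive means too few beads counted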;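 further: 100 nL of 1 mM stock went into each well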
ugtP null kill – kills S. aureus RN4220 lacking UgtP; S. aureus RN4220 ugtP deletion, OD600 growth, 16 h; some inactives read as strong as hits; growth inhibition, % (no concentration beside the values); hit rate 0.54% among 330,000;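 active means z-score under -3 and OD600 up to 0.15 on both plates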;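 further: plate controls were untreated wells for no effect and antibiotic for full effect; wells of about 80 µL received 100 nL stock; the first replicate is given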
PrP UTR inh – inhibition of PrP 5' UTR reporter expression. AID 488862. inhibition, % (test concentration not listed). hit rate 0.35% among 340,000. cell-based PrP 5' UTR mRNA reporter, plate reader;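 active means every replicate at 50% or more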;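 further: 0 = median of the neutral control wells; tested in H4 reporter cells; numbers are from one replicate; inactives centre near -14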
Mtb hypoxia inh growth – second read-out of Mtb hypoxia inh, no call of its own (marks repeat the call); growth inhibition, %; measured here: M. tuberculosis growth (absorbance);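 0% = vehicle and 100% = reference antibiotic; read after six days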
An asterisk follows results filed as active; ? = inconclusive; nt = not tested or not shown.

no.	SMILES	RN4220 kill	Mtb hypoxia inh	Mtb hypoxia inh growth	BJeLR lethal	Bead autofluor	ugtP null kill	PrP UTR inh
1	Cc1sc2c(c1C)c(=O)nc1n2Cc2ccccc2-1	1.8	nt	nt	-4	nt	5	nt
2	CCOC(=O)c1cnc2c(C)c(C)ccc2c1NCCN1CCOCC1	-0.2	nt	nt	2	3658	10	-10
3	O=C(COC(=O)/C=C/c1cccc(C(F)(F)F)c1)NC(=O)NCc1ccco1	-2.0	-3	11	nt	3462	-6	-3
4	Cc1c(C)c(C)c(CN2CCCC2)c(C)c1C	2.3	9	10	20	5829	5	-12
5	CCC(C(=O)OCC(=O)Nc1ccc(F)cc1)c1ccccc1 (stereo not given)	2.8	-9	0	nt	8436	-6	5
6	O=C(CN1C(=O)NC(Cc2c[nH]c3ccccc23)C1=O)NC1CCCCC1 (stereo not given)	3.4	11	9	nt	3150	5	-7
7	O=C(O)C(O)(c1ccccc1)C1CCCCC1 (stereo not given)	3.5	5	-1	1	3835	6	-11
8	CC(C)CNC(=S)NNC(=O)c1ccccc1OC(F)F	0.9	9	8	3	?	1	-17
9	COc1ccc(S(=O)(=O)NCC2CCCO2)c(Cl)c1Cl (stereo not given)	5.3	15	4	8	3967	2	-6
10	O=C(NN=Cc1cccc([N+](=O)[O-])c1)c1ccc(Br)cc1	0.1	0	2	nt	nt	-6	nt
11	CCc1c(O)nc(SCC(=O)Nc2ccc(OC)cc2)n(C2CCCCC2)c1=O	2.5	7	8	-2	24511*	-3	-46
12	CCNc1nc(NC(C)C)nc(N2CC(=O)N(CC(=O)OCC)C2=N)n1	-3.4	3	9	0	10491	3	1
13	COc1ccccc1NC(C)C(=O)NN=Cc1cccs1 (stereo not given)	4.2	5	8	nt	nt	-12	nt
14	Cc1ccc(N/C=C(/C#N)c2ccsc2)cc1C	nt	nt	nt	8	3186	nt	-117
15	CN(CCCN1CCOCC1)C(=O)c1ccc2nc(Cc3cccc(Cl)c3)oc2c1	3.4	-1	0	-1	nt	2	-10
16	COc1ccc(C(c2nnnn2Cc2cccs2)N2CCN(c3ccccc3F)CC2)cc1OC (stereo not given)	1.3	nt	nt	-6	3172	3	-1
17	O=C(c1ccccc1)N1CCN(c2ccc([N+](=O)[O-])c(N3CCOCC3)c2)CC1	-3.0	-9	-9	8	2550	-8	-15
18	O=C(CCCOc1ccccc1)Nc1nccs1	-0.2	4	-1	15	?	0	-6
19	CCNC(=O)CN1C(=O)NC2(CCCc3cc(OC)ccc32)C1=O (stereo not given)	nt	nt	nt	-7	2836	nt	-12
20	COc1ccccc1/C=C/C(=O)NCC(=O)N/N=C(/C)c1ccc(Cl)cc1	nt	nt	nt	-5	4473	nt	-5
21	CC=CC(=O)Nc1cccc(C2=NOC3(C2)CC(C(N)=O)N(C(=O)COc2ccc(Cl)cc2)C3)c1 (stereo not given)	3.1	3	-2	nt	nt	2	nt
22	ON=C1CCC(=NO)c2nn(-c3ccccc3Cl)nc21	2.1	3	12	nt	nt	2	nt
23	CCCCOC(=O)Cn1c(=N)n(CCN(CC)CC)c2ccccc21	3.7	nt	nt	2	2658	5	-11
24	Cc1ccc(C(=O)N2N=C(c3ccc(NS(C)(=O)=O)cc3)CC2c2cccs2)cc1 (stereo not given)	12	-24	4	-3	4302	-6	nt
25	O=C(c1ccc(S(=O)(=O)N2CCOCC2)cc1)N1CCN(S(=O)(=O)c2ccc(Cl)s2)CC1	4.1	6	-1	-9	4820	5	4
26	Cc1ccc2oc(-c3cccc(NC(=S)NC(=O)c4cccs4)c3)nc2c1	14	2	-17	-15	8062	-9	-36
27	COc1cc2c(cc1OC)CN(C(=O)CCNS(=O)(=O)c1ccccc1F)CC2	2.6	1	5	7	7409	6	1
28	Cc1ccc(S(=O)(=O)N2CCCC2C(=O)NCCc2nc3ccccc3[nH]2)cc1 (stereo not given)	5.9	9	8	4	6692	6	5
29	O=S(=O)(Nc1ccc2c(c1)OCCO2)c1c(F)cccc1F	9.2	-3	-6	-14	4789	1	-15
30	COc1ccccc1CNC(=O)COC(=O)Cc1ccc(Cl)cc1	4.7	6	5	-5	2495	10	-1
31	O=C(Nc1cccc(C(F)(F)F)c1)c1cccnc1N1CCN(CCO)CC1	7.3	5	5	13	9017	-13	-22
32	CC(NC(=O)C1CCC(CNc2c(N3CCCCC3)c(=O)c2=O)CC1)c1ccccc1 (stereo not given)	-6.2	-8	0	-2	3466	-4	-31
33	Cc1ccnc(NS(=O)(=O)c2ccc3ccccc3c2)n1	1.9	6	14	-7	3676	17	-16
34	Cc1cc(NC(=O)c2c(F)cccc2F)n(-c2nc3ccccc3[nH]2)n1	1.7	11	-2	-4	16824*	-18	-7
35	COc1ccc(-n2nc(C(=O)NCC(=O)N3CCOCC3)c3ccccc3c2=O)cc1OC	1.2	-4	3	-1	3785	12	-10
36	COc1ccc(OCCSc2nc(C)nc3ccccc23)cc1	14	nt	nt	3	5149	19	-33
37	CC(=O)c1ccc(OCCCC(=O)Nc2cc(Cl)ccc2-n2cncn2)cc1	0.6	2	-3	-4	4758	8	-26
38	O=C(CSCc1c(Cl)cccc1Cl)NN=C1CCCC1	5.8	12	0	-6	4405	7	-22
39	O=C(N/N=C/c1cccc(O)c1)c1ccc(COc2ccccc2Br)cc1	nt	nt	nt	11	1990	nt	-13
40	COc1ccc(-n2ncc3c(NCc4ccco4)ncnc32)cc1	4.3	-3	9	-5	11032	-5	-32
41	N#CCSc1nc2ccc(N3CCCCC3)cc2c(=O)n1Cc1ccccc1	-4.1	1	13	6	29809*	30	-20
42	CCOc1ccccc1C=NNc1nc(C)cc(=O)[nH]1	1.1	7	5	nt	nt	-2	nt
43	Cc1ccc(NC(=O)C(C)OC(=O)/C=C/c2ccccc2)cc1S(=O)(=O)N1CCOCC1 (stereo not given)	1.3	-10	2	-7	5936	-9	-10
44	COc1ccnc(N=CNOCc2cccc(C(F)(F)F)c2)c1C#N	3.2	-2	-3	3	3467	0	-15
45	COc1ccc(NC(=O)C23CC4CC(C2)CC(n2cnc(Br)n2)(C4)C3)c(OC)c1	0.1	nt	nt	-5	2831	0	-15
46	Cc1cc(Br)ccc1OCC(=O)NNC(=O)Cc1ccccc1	5.2	0	3	-2	2428	12	-23
47	COc1ccc(C(=O)ON=C(c2ccccc2)c2ccncc2)cc1OC	7.3	-3	2	nt	nt	12	nt
48	Cc1ccc2c(c1)-c1[nH]c(=S)ncc1CS2	-0.3	14	3	-2	3875	20	-24
49	Cc1ccccc1C(=O)Oc1cccc(Nc2ncnc3ccccc23)c1	-11	nt	nt	9	3140	-11	-17
50	Cc1ccc(SCc2[nH]nc3c2C2(C(=O)N(C)c4ccccc42)C(C#N)=C(N)O3)cc1 (stereo not given)	24	6	15	-2	4504	-25	-17
51	O=C(NC(=S)Nc1ccc([N+](=O)[O-])cc1O)C1CCCCC1	-9.6	5	6	-12	4159	5	-11
52	COCCNC(=O)C(c1cccs1)N(Cc1cccs1)C(=O)Cn1nnc2ccccc21 (stereo not given)	0.2	nt	nt	-2	4316	1	-16
53	C/C(=N\Nc1nccnc1Cl)c1c(F)c(F)c(F)c(F)c1F	nt	nt	nt	4	2389	nt	-17
54	COC(=O)[C@@]1(Cc2ccccc2)[C@H]2C(=O)N(Cc3ccccc3)C(=O)[C@H]2[C@H]2CN=C(SCC3CC3)N21	3.8	-4	4	nt	3933	-9	-14
55	Cc1cccc(N2CCN(C(=O)c3ccc4c(c3)c(C)c(C)n4C)CC2C)c1 (stereo not given)	-1.5	-2	8	-1	6278	-8	-20
56	Cc1ccc(C2CC(c3ccc(Cl)cc3)=NNC2=O)cc1 (stereo not given)	4.6	nt	nt	5	2357	-5	-18
57	COC(=O)c1ccc(/C=N/OCC(=O)NC2CCCCCCC2)cc1	nt	nt	nt	-1	?	nt	-18
58	CN(C)C(=O)c1ccc(NC(=O)c2cncc(Br)c2)cc1	2.6	-1	3	0	21882*	1	-18
59	O=C(Nc1cccc(NC(=O)c2ccccc2F)c1)c1ccccc1	8.5	-2	1	5	3619	5	-19
60	COc1cccc(NC(=O)COC(=O)CCOc2ccccc2OC)c1	7.4	12	4	-16	3903	9	-14

Reformatted: 2 of the compounds above
50) Cc1ccc(SCc2[nH]nc3c2C2(C(=O)N(C)c4ccccc42)C(C#N)=C(N)O3)cc1 (stereo not given)
51) O=C(NC(=S)Nc1ccc([N+](=O)[O-])cc1O)C1CCCCC1
compound no.	50	51
RN4220 kill	24	-9.6
Mtb hypoxia inh	6	5
Mtb hypoxia inh growth	15	6
BJeLR lethal	-2	-12
Bead autofluor	4504	4159
ugtP null kill	-25	5
PrP UTR inh	-17	-11

Remaining list, next part:
no.	SMILES	RN4220 kill	Mtb hypoxia inh	Mtb hypoxia inh growth	BJeLR lethal	Bead autofluor	ugtP null kill	PrP UTR inh
61	O=C(NC(Cc1ccc(O)cc1)C(=O)O)c1cccnc1 (stereo not given)	3.0	10	12	nt	nt	-1	nt
62	Oc1c(CN2CCN(c3ccc(F)cc3)CC2)cc(Cl)c2cccnc12	8.0	-11	-12	20	8088	-20	40
63	CCC(C)N(C(=O)c1csnn1)C(C(=O)NC1CCCC1)c1ccc(F)cc1 (stereo not given)	1.4	4	12	-9	3603	17	-23
64	CC(C)CCN1C(=O)c2ccc(C(=O)Nc3ccc(O)cc3C(=O)O)cc2C1=O	7.4	5	3	4	3561	12	-16
65	CCn1c(C)cc(=S)c2ccccc21	nt	nt	nt	-15	2172	nt	-3
66	O=C1OC2(CCCCC2)OC(=O)C1=CNc1ccc2c(c1)OCO2	1.2	4	14	2	5152	4	-37
67	Cc1cccc(NS(=O)(=O)c2ccc(C)c(C(=O)NCC(c3cccs3)N3CCOCC3)c2)c1 (stereo not given)	6.9	-2	10	nt	3544	3	-11
68	Cc1ccc(NC(=S)NC2CCCCC2)cc1S(=O)(=O)N(C)C	-3.7	-7	18	-7	3927	-3	-23
69	N#Cc1ccccc1OCC(=O)Nc1ccc(N2CCOCC2)cc1N1CCOCC1	5.8	2	-5	nt	8055	1	3
70	CCOC(=O)C(=NNc1ccccc1)P(=O)(c1ccccc1)c1ccccc1	3.1	0	-7	nt	nt	-2	nt
71	O=C(C(Sc1ccccc1)c1ccc(Br)cc1)N1CCOCC1 (stereo not given)	2.8	7	10	-1	2503	-3	-10
72	CCOC(=O)CSc1nc2cccnc2n1-c1ccc(F)cc1	0.3	11	6	1	4708	12	-2
73	C/C(CC(=O)Nc1ccc2ccccc2c1)=N\NC(=O)c1ccc(O)c(O)c1	nt	nt	nt	0	5313	nt	-38
74	CCOC(=O)C1=C(COC(=O)Cc2ccc(Br)cc2)NC(=O)NC1C (stereo not given)	25	15	1	8	5734	8	-22
75	C=CCOc1cccc(C2C(C(=O)c3ccc(C)o3)=C(O)C(=O)N2c2nccs2)c1 (stereo not given)	17	nt	nt	4	5183	11	-7
76	NC(=O)Cn1nnc(-c2ccccc2NC(=O)c2cnccn2)n1	4.5	nt	nt	-1	3613	6	-11
77	O=C(NC(c1ccccc1)c1c(O)ccc2ccccc12)c1ccccc1Cl (stereo not given)	2.0	3	3	nt	8152	42	8
78	COCCNC(=O)c1ccc(CS(=O)(=O)c2c(Cl)cccc2Cl)o1	1.0	nt	nt	-5	4570	2	-4

Structures listed so far with a thiophene ring, fused or not:
no.	SMILES	RN4220 kill	Mtb hypoxia inh	Mtb hypoxia inh growth	BJeLR lethal	Bead autofluor	ugtP null kill	PrP UTR inh
1	Cc1sc2c(c1C)c(=O)nc1n2Cc2ccccc2-1	1.8	nt	nt	-4	nt	5	nt
13	COc1ccccc1NC(C)C(=O)NN=Cc1cccs1 (stereo not given)	4.2	5	8	nt	nt	-12	nt
14	Cc1ccc(N/C=C(/C#N)c2ccsc2)cc1C	nt	nt	nt	8	3186	nt	-117
16	COc1ccc(C(c2nnnn2Cc2cccs2)N2CCN(c3ccccc3F)CC2)cc1OC (stereo not given)	1.3	nt	nt	-6	3172	3	-1
24	Cc1ccc(C(=O)N2N=C(c3ccc(NS(C)(=O)=O)cc3)CC2c2cccs2)cc1 (stereo not given)	12	-24	4	-3	4302	-6	nt
25	O=C(c1ccc(S(=O)(=O)N2CCOCC2)cc1)N1CCN(S(=O)(=O)c2ccc(Cl)s2)CC1	4.1	6	-1	-9	4820	5	4
26	Cc1ccc2oc(-c3cccc(NC(=S)NC(=O)c4cccs4)c3)nc2c1	14	2	-17	-15	8062	-9	-36
52	COCCNC(=O)C(c1cccs1)N(Cc1cccs1)C(=O)Cn1nnc2ccccc21 (stereo not given)	0.2	nt	nt	-2	4316	1	-16
67	Cc1cccc(NS(=O)(=O)c2ccc(C)c(C(=O)NCC(c3cccs3)N3CCOCC3)c2)c1 (stereo not given)	6.9	-2	10	nt	3544	3	-11
